High-throughput results from PubChem BioAssay.
CapD inh: Bacillus anthracis CapD inhibitors, primary screen, biochemical, fluorescence intensity; hit rate 0.23% among 140,000; z-score (concentration not given with the values); CapD gamma-glutamyltranspeptidase (Bacillus anthracis Ames Ancestor); purified CapD enzyme, fluorescence intensity read-out; stronger effect = lower value; some hits fall short of the stated cut;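 active = z-score under -4 in either of two replicates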;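 also: stock transfer was 100 nL into about 40 µL; score is relative to mean and spread of the plate; one replicate is shown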
AID504770: growth inhibition of E. coli YBA685, primary screen, V. cholerae RctB inhibitors. E. coli YBA685 rctB-dependent plasmid, OD600 growth, 3 h; stronger effect = lower value. z-score (no concentration beside the values). hit rate 0.27% among 130,000. AID 504770, 2011;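 active = z-score under -2 on both plates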;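 also: wells of about 30 µL received 100 nL stock; score is relative to mean and SD of the test wells; the first replicate is given; strong numbers were not always called active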
The depositor's hits bear a star; i = inactive; / = no result given.

The opening 2 compounds, ahead of the listing:
cpd	compound	CapD inh	AID504770
1	CC(=O)N1CCC(N(CCCN2CCC(C)CC2)C(=O)Nc2ccccc2C(F)(F)F)CC1	0.09	0.15
2	CC(C)N(C(=O)Cn1ncc2c(=O)oc3ccccc3c21)C1CCCCC1	0.21	0.1

Main list, previewed entries included:
cpd	compound	CapD inh	AID504770
1	CC(=O)N1CCC(N(CCCN2CCC(C)CC2)C(=O)Nc2ccccc2C(F)(F)F)CC1	0.09	0.15
2	CC(C)N(C(=O)Cn1ncc2c(=O)oc3ccccc3c21)C1CCCCC1	0.21	0.1
3	CN1CCN(C(=O)C(NC(=O)c2ccc(Cl)cc2)C23CC4CC(CC(C4)C2)C3)CC1 (stereo not given)	-0.025	1.4
4	CC(C)(C)c1cc(C(c2ccccc2O)N2CCCCC2)cc(C(C)(C)C)c1O (stereo not given)	-0.11	/
5	CSc1nc(-c2ccccc2)[nH]c(=O)c1C#N	0.15	/
6	CCN(CC)CC(O)Cn1c(-c2ccccc2Cl)nc2ccccc21 (stereo not given)	0.12	-1
7	Clc1cccc(Cc2nnc(-c3ccccc3)o2)c1	0.2	-0.75
8	COc1ccc(NC(=O)OC(C)C)cc1	-1.5	0.55
9	Cc1nc(-c2ccccc2)sc1C(=O)Nc1ccc(S(N)(=O)=O)cc1	0.93	1.6
10	O=C(c1ccccc1)c1ccc(N=Cc2ccccc2O)cc1	-0.97	0.95
11	Cc1cc2nc(C(Cc3ccccc3)NC(=O)c3ccccc3F)[nH]c2cc1C (stereo not given)	0.97	/
12	CCOC(=O)c1c(NC(=O)c2ccc(Cl)cc2)sc(C(=O)Nc2ccccc2OCC)c1C	0.22	/

Full records from above. Order of screens: CapD inh, AID504770
COc1ccc(NC(=O)OC(C)C)cc1 in the list: -1.5, 0.55
O=C(c1ccccc1)c1ccc(N=Cc2ccccc2O)cc1 in the list: -0.97, 0.95
CC(=O)N1CCC(N(CCCN2CCC(C)CC2)C(=O)Nc2ccccc2C(F)(F)F)CC1 in the list: 0.09, 0.15

Continued:
cpd	compound	CapD inh	AID504770
13	O=C(O)c1ccccc1N(Cc1ccc(Br)cc1)C(=O)c1ccco1	/	-0.2
14	CCOc1ccc(C2=NN3C(C2)c2cccc(OCC)c2OC3c2ccc(OCC)cc2)cc1 (stereo not given)	-0.58	/
15	O=C(CC1C(=O)OCC2CCCCN21)Nc1ccc(I)cc1 (stereo not given)	/	-1.5
16	CC(CCOC(=O)NC(CSCc1ccccc1)C(=O)Nc1ccc2ccccc2c1)c1ccccc1 (stereo not given)	0.68	/
17	Nc1ccccc1-c1nc2ccccc2[nH]1	85	/
18	COCCNC(=O)c1cc2cccc(NS(=O)(=O)c3ccc(OC)cc3)c2[nH]1	-0.19	/
19	O=C1/C(=C/c2ccc([N+](=O)[O-])cc2)C=C(c2ccccc2)N1c1ccc(Nc2ccccc2)cc1	-1.4	/
20	CCC1CCCCN1C(=O)c1cc(-c2cccc(OC)c2)no1 (stereo not given)	0.65	-0.65
21	COc1cccc(-n2c(SCC(=O)N3CC(C)CC(C)C3)nc3n[nH]c(C)c3c2=N)c1 (stereo not given)	1.2	-0.45
22	COC(=O)c1c(C)oc2cc(Br)c(OCC(=O)OCc3ccccc3)cc12	0.005	/
23	Cc1cc(C)nc(SCCC(=O)N(C)C)n1	/	-0.25
24	COC(=O)c1cc2nc(-c3ccc(F)cc3)cc(C(F)(F)F)n2n1	0.88	0.15
25	Cc1ccc(C)c(C(=O)NC(C)CN)c1 (stereo not given)	0.77	0.1
26	COc1cc(C(=O)Nc2ccccc2C(=O)N2CCN(C)CC2)cc(OC)c1OC	/	1
27	Oc1[nH]c2ccccc2c1C=NCCN1CCOCC1	-2.7	-1.2
28	CCCOc1ccc2c3c(c(=O)oc2c1C)CCC3	3.7	-0.35
29	O=c1oc2ccc3ccccc3c2cc1-c1csc(Nc2ccc(Oc3ccc(Cl)cc3)cc2)n1	2.9	/
30	CCOC(=O)/C=C(\C)Sc1cc(=O)oc2ccccc12	0.51	-0.35
31	NC(=O)N(N)c1nc(N2CCCCC2)nc(N2CCCCC2)n1	0.15	-0.55
32	Nc1nsnc1C(=O)NCCO	/	-0.65
33	CCOCCOC(=O)C1=C(C)N(C)C(=O)NC1c1ccc(OCc2ccccc2)cc1 (stereo not given)	-0.17	/
34	O=C(Nc1nnc(-c2ccc(Cl)cc2Cl)s1)c1cccc(F)c1	i	-1.3
35	CC1CCN(C2=NC(Cc3ccccc3)C(=O)N2C2CCCCC2)CC1 (stereo not given)	1.6	0.15
36	CCOC(=O)c1cc(C)nc(Sc2ccccc2NC(=O)c2ccccc2)c1C#N	0.32	-0.4
37	CC(C)C(=O)NCCn1ccc2ccccc21	0.22	0.85
38	COc1cc2cc(C)c(SCC(=O)N3CCN(C(=O)c4ccco4)CC3)nc2cc1OC	/	-0.5
39	CC1(C)C(=O)OC(C(=O)c2ccccc2)C(C)(C)C1=O (stereo not given)	0.27	-0.45
40	Cc1cc(C)n(-c2ccccc2O)n1	0.38	-0.75
41	CCc1nc(CN2CCN(c3ccc(F)cc3)CC2)c(C)[nH]1	-1.8*	-0.55
42	Cc1cc(/C=C2\NC(=O)NC2=O)c(C)n1-c1ccc(N2CCOCC2)cc1	0.39	/
43	CCn1c(C2CC2)n[nH]c1=S	/	0.55
44	O=C(O)C(c1ccccc1)C1CCCC1 (stereo not given)	0.23	/
45	Cc1nc(S(=O)(=O)NCc2cc(F)cc3c2OCOC3)cn1C	0.87	-0.1
46	CCOc1cc(Cl)c(S(=O)(=O)n2ccnc2CC)cc1Cl	-0.14	-0.25
47	COC(=O)c1cc(N2C(=O)C3C(C2=O)C2(C)C=CC3(C)O2)ccc1Cl (stereo not given)	1.1	/
48	CN(Cc1cc(=O)n2ccsc2n1)c1ccccc1	-0.42	0.1
49	COc1cc2oc(=O)c3c(c2cc1Cl)CCCC3	/	-0.4
50	CCOC(=O)c1snc(-c2ccc(Cl)cc2)c1N	7.5	1.1
51	Cc1ccc(NC(=O)COC(=O)c2ccc(OCc3c(C)noc3C)cc2)c(C)c1	/	-0.2
52	Clc1nc(SCc2ccccc2)nc2ccccc12	0.73	-1.1
53	CCOC(=O)c1cnn(-c2ccccn2)c1N	1.3	0.9
54	CCCNC(=O)NC1CCCCCCC1	-1.1	2.5
55	O=C(O)c1ccc(NC(=NCc2ccccc2)N2CCN(c3ccc(F)cc3)CC2)cc1	0.62	0.55
56	COCC(C)n1c(COc2ccccc2F)nnc1SCC(=O)NC(=O)NC1CCCCC1 (stereo not given)	/	0
57	CCOc1ccc(C(=O)Nc2ccc3oc(-c4cccc(F)c4)nc3c2)cc1[N+](=O)[O-]	-0.14	/
58	CC(C)COC(=O)NCc1ccc2c(c1)OCO2	-0.13	-1.3
59	Cc1ccccc1Nc1cc(C(=O)NCc2ccccc2)c2ccccc2n1	0.44	0.15
60	Cc1ccc(-c2nn(-c3ccccc3)cc2/C=C\C(=O)N2CCOCC2)cc1	1.7	-0.9
61	CCCc1nc2ccccc2c2c1C(=O)N(C1CCN(Cc3ccc4c(c3)c3ccccc3n4CC)C1)C2=O (stereo not given)	4.2	/
62	COc1ccc(C2=NS(=O)(=O)N(C)C(C(=O)N3CCCCC3)=C2)cc1	3.4	-0.5
63	CCN(c1ccccc1C)S(=O)(=O)c1ccc(C)cc1	/	0.85
64	c1cncc(-c2nc(-c3ccncc3)ncc2-c2ccncn2)c1	-0.55	/
65	CC1(C)CC(=O)C=C(Nc2ccccc2NC(=O)c2cnccn2)C1	/	-0.95
66	Cc1nc(NC(CC(C)C)C(=O)O)c2nc(C)oc2n1 (stereo not given)	0.2	-0.45
67	O=[N+]([O-])c1ccc(-c2nc3ccccc3nc2-c2ccccc2)cc1	-0.21	/
68	Cc1sc2ncnc(SCc3ccccc3C#N)c2c1C	/	3.2
69	O=C1/C(=C/c2ccc(Cl)cc2)C=C(c2ccccc2)N1c1ccccc1O	-1.9	/
70	O=C(NCc1ccccc1)C1CCN(c2cnccn2)CC1	3.2	-0.6
71	COc1ccc(-c2nn(-c3ccccc3)cc2C2SCC(=O)N2Cc2ccccc2)cc1 (stereo not given)	-0.84	/
72	O=CN1CCN(C(=O)c2ccco2)CC1	0.37	0.1

Remaining list, next part
cpd	compound	CapD inh	AID504770
73	Cn1c(-c2ccccc2)cc(C=Nc2ccccc2)c1O	-0.39	-0.95
74	CC(C)c1ccc(S(=O)(=O)NCCOC23CC4CC(CC(C4)C2)C3)cc1	-0.41	-0.75
75	N#Cc1cc2c([nH]c1=S)CCC2	-0.05	-0.2
76	CC1c2ccsc2CCN1C(=O)c1ccc(Cl)cc1 (stereo not given)	-0.24	3.2
77	CCC(=O)Nc1nc2c(c3c1c(=O)oc1ccccc13)CC(C(C)(C)C)CC2 (stereo not given)	-0.34	/
78	COC(=O)C12CC3(C)CC(C)(C1)CC(C(=O)OC)(C3)C2	0.18	0.35
79	CS(=O)(=O)n1nccc1-c1ccc(Oc2cccc(Cl)c2C#N)cc1	-1	-0.2
80	Cc1ccccc1CN1CCN(C(C)C)CC1	-1.3	0.2
81	O=C(NCC(=O)N1CCOCC1)c1ccc(Br)cc1	0.26	0.2
82	Cc1ccccc1-c1nc2scc(-c3cccs3)c2c(=O)o1	/	2
83	COc1ccc(C2Nc3ccc(Br)cc3C(c3ccccc3)O2)c(OC)c1 (stereo not given)	-1.1	/
84	CCc1ccc(Oc2c(C(F)(F)F)oc3c(CN(C)C)c(O)ccc3c2=O)cc1	75	0.05
85	O=C(CSc1cnc2ccccc2n1)N1CCN(c2ccc(F)cc2)CC1	-0.55	-0.1
86	CC(=O)c1ccc(NC(=O)CSc2nc3ccc(NC(=O)c4ccccc4C)cc3s2)cc1	4.4	/
87	CCOC(=O)COc1ccc2c(=O)c(Oc3ccccc3Br)c(C(F)(F)F)oc2c1	0.22	/
88	Cn1cnnc1SC/C(O)=C(\C#N)c1nc2ccccc2[nH]1	/	-0.3
89	COc1ccc(N2C(=S)N=C(Nc3ccccc3)C23CCCCC3)cc1	-0.54	/
90	CCC(=O)Oc1ccc(C(=O)Nc2cc(C(=O)O)cc(C(=O)O)c2)cc1	-0.84	-0.85
91	O=C(NCSc1ccnc(SCNC(=O)c2ccccc2)n1)c1ccccc1	-0.52	1.1
92	CCCN1CCC(N(C2CC2)S(=O)(=O)c2ccc(NC(=O)NCC)cc2)CC1	0.11	/
93	NNC(=O)c1c(O)c2cccc3c2n(c1=O)CCC3	8.9	-0.65
94	CCOC(=O)c1cc(-c2ccc(S(=O)(=O)Nc3cccc(SC)c3)s2)on1	0	0.85
95	CCCNC(=O)CCn1c(=O)c2cccn2c2cccnc21	44	0.65
96	Cc1cc(=O)oc2cc(OC3OC(CO)C(O)C(O)C3O)ccc12 (stereo not given)	34	0.35
97	Cc1sc2nc(CCl)[nH]c(=O)c2c1C	-0.83	-0.5
98	Cc1ccc(Sc2c(C)c3cc4c(cc3[nH]c2=O)OCO4)cc1	-1	-0.3
99	CSc1ccc(NC(=O)N2C3CCC2CC(O)(c2cccnc2)C3)cc1 (stereo not given)	/	-0.7
100	CCOC(=O)COc1ccc(C2C(C#N)=C(C)NC(C)=C2C#N)cc1	8.2	0.05
101	CC1CCc2nc(NC(=O)c3ccc(Cc4ccccc4)cc3)sc2C1 (stereo not given)	1.3	-0.1
102	COc1cc(Cl)ccc1S(=O)(=O)n1nnc2ccccc21	0	-0.1
103	Cc1onc(-c2ccccc2)c1CNC(=O)c1cnn(-c2ccccc2)c1C	0.6	1.1
104	CC(/C=N/O)Cc1ccc2c(c1)OCO2 (stereo not given)	-0.04	1.6
105	Cc1ccc2c(c1)C1(c3ccccc3)Nc3ccc(C)cc3C1(c1ccccc1)N2 (stereo not given)	0.38	/
106	COc1ccc([C@@H]2CC(=O)c3c(O)cc(O[C@@H]4O[C@H](CO[C@H]5O[C@@H](C)[C@H](O)[C@@H](O)[C@H]5O)[C@@H](O)[C@H](O)[C@H]4O)cc3O2)cc1O	-2.7	/
107	COc1ccc(-c2[nH]nc3c2C(c2ccc(OC(=O)c4ccco4)cc2)C(C#N)=C(N)O3)cc1 (stereo not given)	0.065	/
108	Cc1ccc(C(=O)NC(C)C)cc1	0.015	-0.65

4 entries out of the list, sorted by count of non-hydrogen atoms, falling.
cpd	compound	CapD inh	AID504770
106	COc1ccc([C@@H]2CC(=O)c3c(O)cc(O[C@@H]4O[C@H](CO[C@H]5O[C@@H](C)[C@H](O)[C@@H](O)[C@H]5O)[C@@H](O)[C@H](O)[C@H]4O)cc3O2)cc1O	-2.7	/
100	CCOC(=O)COc1ccc(C2C(C#N)=C(C)NC(C)=C2C#N)cc1	8.2	0.05
102	COc1cc(Cl)ccc1S(=O)(=O)n1nnc2ccccc21	0	-0.1
108	Cc1ccc(C(=O)NC(C)C)cc1	0.015	-0.65

Carrying on:
cpd	compound	CapD inh	AID504770
109	COc1ccc(/C=C2\SC(=S)N(CCCC(=O)O)C2=O)cc1OC	-0.31	-0.1
110	Cc1nc2c(c(C)nn2C)c(C)c1CCC(=O)NC1CCCCC1	0.035	0.25
111	Cc1cc(C(F)(F)Sc2ccc(Cl)cc2)n[nH]1	-1.8	2.8
112	COCC(C)n1c(C)cc(C(=O)COC(=O)c2c(C)nn(-c3ccccc3)c2C)c1C (stereo not given)	/	0.2
113	COC(=O)c1sc2ccccc2c1Cl	-0.12	/
114	O=S(=O)(c1ccccc1)N1CCCCC1c1cccnc1 (stereo not given)	-0.38	-0.5
115	CCc1ccc(S(=O)(=O)Nc2ccc3c(c2)c(C(C)=O)c(C)n3S(=O)(=O)c2ccc(CC)cc2)cc1	-0.12	/
116	CCc1nnc(NC(=O)C2CCCN2C(=O)Nc2ccccc2)s1 (stereo not given)	0.44	-0.35
117	O=C(c1cc(Cl)c(O)c(Cl)c1)N1CCc2ccccc2C1	/	0.5
118	CCCc1cc(=O)n2[nH]cnc2n1	-0.2	-1.1
119	Cc1ccccc1OCc1nnc(SCCC(=O)O)n1Cc1ccccc1	-0.055	-0.65

The list is partial; the hit share may differ from the screen's.
